Screening results as filed in PubChem BioAssay.
LANA-H2B inh = blockers of LANA interaction with H2A/H2B – biochemical, FP readout, HTS, primary screen; inhibition, % (no concentration beside the values); 320,000 tested, 0.6% active; AID 2629, 2010; Protein LANA1 (Human herpesvirus 8 type P (isolate GK18)), Q9QR71; cell-free LANA-H2A/H2B peptide, fluorescence polarization; in the data active = inhibition mostly above about 10%, no sharp cut-off; inactive = mostly below about 6.7%;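 note: stock transfer was 7.5 nL into about 10 µL; 0% = median of vehicle wells and 100% = median of positive control wells; one replicate is shown; the record names a cut of 25% in any replicate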
Calb FLC = C. albicans growth inhibition with fluconazole, primary screen, CaCi-2 strain, Alamar Blue fluorescence | C. albicans CaCi-2 (fluconazole-resistant clinical isolate) + fluconazole, 48 h | growth inhibition, % (concentration not given with the values) | 300,000 tested, 0.57% active;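 active = most replicates above 75%; inconclusive = exactly half above 75%; inactive = most below 75%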;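 note: all wells also contain fluconazole at 8 µg/ml as a sub-toxic cotreatment; 0% = median of DMSO wells and 100% = median of geldanamycin control wells; wells of about 8 µL received 7.5 nL stock; the first replicate is given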
Beta2AR agonist = beta2AR agonists driving receptor internalization, primary screen, cell-based, FAP fluorogen, flow cytometry | Am2.2-beta2AR cells; reference of the scale not given here | response, % (no concentration beside the values) | 340,000 tested, 0.43% active;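 active = response above a set limit, near 3 SD of response in nonfluorescent compounds, cut at about 42% in these data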;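 note: stock transfer was 100 nL into about 11 µL; a reference agonist was the positive control; negative values mostly stem from fluorescent compounds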
Target sequence (P07550 whole entry, looked up): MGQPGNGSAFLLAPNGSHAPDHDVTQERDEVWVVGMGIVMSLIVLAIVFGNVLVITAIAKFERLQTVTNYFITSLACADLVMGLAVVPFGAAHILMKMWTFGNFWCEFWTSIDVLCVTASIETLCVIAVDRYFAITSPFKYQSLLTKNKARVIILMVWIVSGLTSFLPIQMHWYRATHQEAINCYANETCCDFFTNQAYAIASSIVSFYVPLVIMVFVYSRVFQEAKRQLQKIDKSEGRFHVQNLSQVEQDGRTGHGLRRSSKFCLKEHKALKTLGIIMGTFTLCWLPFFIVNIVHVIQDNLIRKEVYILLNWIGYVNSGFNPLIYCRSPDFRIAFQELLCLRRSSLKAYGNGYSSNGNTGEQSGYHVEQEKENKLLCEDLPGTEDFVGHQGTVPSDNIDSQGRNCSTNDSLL
Ecoli rRNA inh = reduced GFP signal of wild-type E. coli, primary screen, bacterial rRNA inhibitor project, GFP/RFP fluorescence, OD600, single point; E. coli WT GFP vs humanized-ribosome RFP mutants, 24 h; stronger effect = lower value; DMSO median 0, no signal -100; GFP signal change (wild-type ribosome), % (test concentration not listed); 350,000 tested, 1.6% active; AID 720706, 2013;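 active = significant combined selectivity score with lowered wild-type GFP, culture density cut under 30%, mutant RFP and density less affected; inactive = any of these conditions unmet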; note: one replicate is shown; some compounds called inactive have numbers as strong as hits
ALR inh = inhibitors of human ALR sulfhydryl oxidase, primary screen, biochemical, H2O2 detection, HRP-luminol luminescence, single point | FAD-linked sulfhydryl oxidase ALR (Homo sapiens), P55789 | purified ALR, DTT oxidation | inhibition, % (test concentration not listed) | 290,000 tested, 3.8% active | AID 485317, 2010;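 active = mean and each replicate at 75% or more; inconclusive = only one of the two met; inactive = neither met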;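 note: stock transfer was 7.5 nL into about 7.5 µL; 0% = neutral wells and 100% = wells with inactivated enzyme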
Target sequence (P55789 whole entry, looked up): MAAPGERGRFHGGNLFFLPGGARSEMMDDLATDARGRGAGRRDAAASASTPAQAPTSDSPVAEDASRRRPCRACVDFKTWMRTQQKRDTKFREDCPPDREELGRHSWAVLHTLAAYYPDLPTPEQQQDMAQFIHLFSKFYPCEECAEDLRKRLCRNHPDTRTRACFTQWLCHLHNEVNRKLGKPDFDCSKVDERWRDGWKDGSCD
Bfl-1 A1 inh = caspase 3/7 activation in MEF A1-2A-BIM cells, primary screen, A1 inhibitor project, cell-based, luminescence, HTS; 330,000 tested, 0.066% active; Caspase-Glo 3/7 luminescence, 3 h; percent of clofoctol response, vehicle zero; caspase activation, % (concentration not given with the values);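 active = over half of replicate activation scores above 10%, or exactly half above 10 with the replicate mean above 10; inconclusive = replicate mean below 10 yet half the replicates above 10; inactive = over half of replicates below 10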;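 note: wells of about 30 µL received 50 nL stock; many hits fall short of the cut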
T cruzi inh = inhibitors of intracellular T. cruzi growth, primary screen, luminescence, NIH3T3 host cells. T. cruzi beta-gal in NIH3T3, 90 h. inhibition, % (no concentration beside the values). 300,000 tested, 1.4% active;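 active = mean inhibition across valid replicates above about 55%, limit read from the data; inconclusive = mean below that limit but half or more replicates reach it; inactive = mean below it, under half of replicates reach it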;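 note: signal also drops with host cell toxicity which is not excluded here; 0% = plate median of DMSO wells and 100% = zero luminescence signal; higher percent means less beta-gal luminescence so fewer parasites; stock transfer was 50 nL into about 50 µL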
Beta apoptosis = inhibitors of cytokine-induced beta cell apoptosis, primary screen, luminescence. protection from apoptosis, % (concentration not given with the values). INS-1E cytokine-induced death, ATP luminescence, 48 h; percent of positive-control rescue, neutral wells zero. 300,000 tested, 0.8% active. AID 435005, 2010;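 active = all replicates at 75% or more, or half of them and the mean; inconclusive = half reach 75% but not the mean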;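 note: 0% = cytokine-treated negative control wells and 100% = positive control rescue; higher means more ATP so stronger rescue from cytokine killing; wells of about 40 µL received 100 nL stock; the first replicate is given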
Ecoli rRNA inh OD600 = further read-out of Ecoli rRNA inh, marked with its call; OD600 change, %; measured here: OD600 growth;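 optical density of the mix in the first replicate; 0 = DMSO median and -100 = no signal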
Ecoli rRNA inh RFP = further read-out of Ecoli rRNA inh, marked with its call; RFP signal change, %; measured here: RFP humanized mutant strains;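 first replicate; 0 = DMSO median and -100 = no signal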
Active calls of the source: *; & = joins results of further samples; ! = not confirmed by another sample. This is a subset; the hit share may differ from the screen's.

What do the screens show for `CNC(=S)SCCOc1ccc(C)cc1`?
LANA-H2B inh: -0.3; Calb FLC: inconclusive; Beta2AR agonist: -7; ALR inh: -13; Bfl-1 A1 inh: 1.0; T cruzi inh: 23; Beta apoptosis: -32

What do the screens show for `COc1ccc2c(c1OC)C(=O)OC2Nc1ccc(S(=O)(=O)N=C(N)N)cc1` (centres undefined)?
LANA-H2B inh: -3.4; Calb FLC: 11; Beta2AR agonist: -5; Ecoli rRNA inh: 11; Bfl-1 A1 inh: 1.0; T cruzi inh: -14; Beta apoptosis: 6; Ecoli rRNA inh OD600: 8; Ecoli rRNA inh RFP: 0.6

Results for CN1CCC(N(C)C(=O)NC2CCCCC2)CC1 ?
LANA-H2B inh: 1.6; Calb FLC: -7; Beta2AR agonist: -2; Ecoli rRNA inh: 17; ALR inh: 11; Bfl-1 A1 inh: -0.2; T cruzi inh: 21; Ecoli rRNA inh OD600: 7; Ecoli rRNA inh RFP: -0.4

What do the screens show for `C=CCNC(=O)c1cc2c(C(F)(F)F)nn(C)c2s1`?
LANA-H2B inh: -1.6; Calb FLC: -1; Beta2AR agonist: -3; ALR inh: -1; Bfl-1 A1 inh: 0.4; T cruzi inh: -12; Beta apoptosis: -5

How did O=C(c1ccc2c(c1)OCO2)N(Cc1ccco1)C1(C(=O)NC2CCCCC2)CCCCC1 do in these assays?
LANA-H2B inh: -3.8; Calb FLC: 1; Beta2AR agonist: 6; ALR inh: -14; Bfl-1 A1 inh: -0.1; T cruzi inh: 8; Beta apoptosis: 28

What do the screens show for `CCCC(=O)N1CCN(c2nc(CC(C)C)c3c(c2C#N)CCC3)CC1`?
LANA-H2B inh: 4.1; Calb FLC: 3; Beta2AR agonist: 5; ALR inh: -23; Bfl-1 A1 inh: 0.4; T cruzi inh: 30; Beta apoptosis: 0

How did O=C1C=CC(=C(c2ccc(O)cc2)c2ccc(O)cc2)C=C1 do in these assays?
LANA-H2B inh: -4.7; Beta2AR agonist: -3; Ecoli rRNA inh: -50*!; ALR inh: 99*; Bfl-1 A1 inh: 1.2; Beta apoptosis: -5; Ecoli rRNA inh OD600: -34*!; Ecoli rRNA inh RFP: 8.2*!

Results for COc1ccc(C2/C(=C(/O)c3ccc(C)cc3)C(=O)C(=O)N2C)c(OC)c1 (centres undefined) ?
LANA-H2B inh: -1.5; Calb FLC: -3; Beta2AR agonist: 0; Ecoli rRNA inh: 6; Bfl-1 A1 inh: 0.2; T cruzi inh: -2; Beta apoptosis: -4; Ecoli rRNA inh OD600: 10; Ecoli rRNA inh RFP: -0.9

Results for CN1CCN(C(=O)c2cc(Cl)ccc2Cl)CC1 ?
LANA-H2B inh: -5.7; Calb FLC: -3; Beta2AR agonist: -4; ALR inh: 9; Bfl-1 A1 inh: -0.4; T cruzi inh: -16; Beta apoptosis: -2

How did Cc1ccc(C)c2c1sc(=NC(=O)CN1C(=O)CCC1=O)n2C do in these assays?
LANA-H2B inh: -3.1; Calb FLC: -6; Beta2AR agonist: -2; Ecoli rRNA inh: 4; ALR inh: -9; Bfl-1 A1 inh: -0.1; T cruzi inh: 37; Ecoli rRNA inh OD600: 6; Ecoli rRNA inh RFP: -0.7

Results for COc1ccc(N2CCN(C(CNC(C)=O)c3ccco3)CC2)cc1 (centres undefined) ?
LANA-H2B inh: 4.7; Calb FLC: -1; Beta2AR agonist: 9; Ecoli rRNA inh: 11; ALR inh: inconclusive; Bfl-1 A1 inh: 0.6; T cruzi inh: 2; Beta apoptosis: -2; Ecoli rRNA inh OD600: 3; Ecoli rRNA inh RFP: -5.6

How did CCCCn1c(CNC(=O)C(C)(C)C)nc2ccccc21 do in these assays?
LANA-H2B inh: 5.9; Calb FLC: -2; Beta2AR agonist: -5; Ecoli rRNA inh: 2; ALR inh: -3; Bfl-1 A1 inh: 1.0; T cruzi inh: -8; Beta apoptosis: 6; Ecoli rRNA inh OD600: 15; Ecoli rRNA inh RFP: -2.6

Results for Cn1c(N)nc2nc(CCc3ccccc3)c(=O)[nH]c2c1=O ?
LANA-H2B inh: 2.7; Calb FLC: 22; Beta2AR agonist: -9; Ecoli rRNA inh: 7; ALR inh: 2; Bfl-1 A1 inh: -0.1; T cruzi inh: 3; Beta apoptosis: -1; Ecoli rRNA inh OD600: 1; Ecoli rRNA inh RFP: -0.3

Results for CCOC(=O)C1(Cc2ccccc2)CCCN(Cc2cccc(C(C)=O)c2)C1 (centres undefined) ?
LANA-H2B inh: 11; Calb FLC: -15; Beta2AR agonist: -6; Ecoli rRNA inh: -30; ALR inh: 4; Bfl-1 A1 inh: 1.4; T cruzi inh: 8; Ecoli rRNA inh OD600: -53; Ecoli rRNA inh RFP: -5.1

Results for CCC(C)N1CC23C=CC(O2)C(C(=O)OCc2ccccc2)C3C1=O (centres undefined) ?
LANA-H2B inh: 2.8; Calb FLC: -1; Beta2AR agonist: 1; ALR inh: -1; Bfl-1 A1 inh: 1.4; T cruzi inh: 14; Beta apoptosis: -5

Results for O=S(=O)(N/N=C\c1ccc2c(c1)OCO2)c1ccccc1 ?
LANA-H2B inh: 4.9; Calb FLC: 0; Beta2AR agonist: -1; Ecoli rRNA inh: 3; ALR inh: 58; Bfl-1 A1 inh: -1.3; T cruzi inh: -11; Beta apoptosis: -11; Ecoli rRNA inh OD600: 15; Ecoli rRNA inh RFP: -1.5

What do the screens show for `COCCSc1ccccc1C(=O)N1CCN(Cc2ccccc2)CC1`?
LANA-H2B inh: -1.2; Calb FLC: -7; Beta2AR agonist: 0; Ecoli rRNA inh: 2; ALR inh: -2; Bfl-1 A1 inh: 1.9; T cruzi inh: 0; Beta apoptosis: 3; Ecoli rRNA inh OD600: 10; Ecoli rRNA inh RFP: 11

Results for C=CCN=C1SC(C)C(=O)N1S(=O)(=O)c1ccccc1 (centres undefined) ?
LANA-H2B inh: 4.4; Calb FLC: -4; Beta2AR agonist: 0; Ecoli rRNA inh: -2; ALR inh: 6; Bfl-1 A1 inh: -0.4; T cruzi inh: -11; Beta apoptosis: -1; Ecoli rRNA inh OD600: 3; Ecoli rRNA inh RFP: -6.3

How did O=C(NCc1ccncc1)/C(=N/O)c1ccccc1 do in these assays?
LANA-H2B inh: -3.5; Calb FLC: -3; Beta2AR agonist: -8; ALR inh: 12; Bfl-1 A1 inh: -0.2; T cruzi inh: -7; Beta apoptosis: -4

Results for O=c1[nH]cnc2ncc(-c3ccc(O)cc3)nc12 ?
LANA-H2B inh: 3.6; Calb FLC: -6; Beta2AR agonist: -10; Ecoli rRNA inh: 0; ALR inh: 100*; Bfl-1 A1 inh: -0.5; T cruzi inh: -6; Beta apoptosis: 1; Ecoli rRNA inh OD600: 7; Ecoli rRNA inh RFP: -2.7

How did CC(C(=O)N1CCc2ccccc21)N1CCN(S(=O)(=O)c2cccc(C(F)(F)F)c2)CC1 (centres undefined) do in these assays?
Beta2AR agonist: 3; Ecoli rRNA inh: -11; ALR inh: -3; Bfl-1 A1 inh: 0.0; Beta apoptosis: 4; Ecoli rRNA inh OD600: -26; Ecoli rRNA inh RFP: -5.8

What do the screens show for `CCc1nnc(NC(=O)CCN2C(=O)c3ccccc3C2=O)s1`?
LANA-H2B inh: 0.4; Calb FLC: -2; Beta2AR agonist: -6; ALR inh: -9; Bfl-1 A1 inh: 0.4; T cruzi inh: -16; Beta apoptosis: -1

What do the screens show for `O=C1CCN(S(=O)(=O)c2ccccc2)CCN1CCOCc1ccc(Cl)cc1`?
LANA-H2B inh: 9.6; Calb FLC: -2; Beta2AR agonist: 1; Ecoli rRNA inh: -5; ALR inh: 1; Bfl-1 A1 inh: 0.5; T cruzi inh: -9; Beta apoptosis: -9; Ecoli rRNA inh OD600: -10; Ecoli rRNA inh RFP: -1.4

How did CC(C)n1c(=N)c(C(=O)NCCc2ccccc2)cc2c(=O)n3ccccc3nc21 do in these assays?
LANA-H2B inh: -2.0; Calb FLC: 1; Beta2AR agonist: -13; ALR inh: -2; Bfl-1 A1 inh: 0.3; T cruzi inh: 23; Beta apoptosis: 4

What do the screens show for `CCCC(=O)NC(=S)Nc1sc2c(c1C(N)=O)CCC2`?
LANA-H2B inh: -2.4; Calb FLC: 4; Beta2AR agonist: -20; Ecoli rRNA inh: -2; ALR inh: 28; Bfl-1 A1 inh: -1.4; T cruzi inh: -6; Beta apoptosis: 4; Ecoli rRNA inh OD600: -6; Ecoli rRNA inh RFP: 2.3

Results for Cc1ccc(NS(=O)(=O)c2ccc(CCC(=O)O)cc2)cc1 ?
LANA-H2B inh: -0.1; Calb FLC: -1; Beta2AR agonist: -5; Ecoli rRNA inh: 2; ALR inh: -1; Bfl-1 A1 inh: 0.6; T cruzi inh: -7; Beta apoptosis: -4; Ecoli rRNA inh OD600: 3; Ecoli rRNA inh RFP: -2.6

How did Cc1ccc(CN(c2ccc(C(=O)N3CCc4ccccc4C3)cc2)S(C)(=O)=O)cc1 do in these assays?
LANA-H2B inh: 2.9; Calb FLC: 1; Beta2AR agonist: -2; ALR inh: -4; Bfl-1 A1 inh: 0.0; T cruzi inh: 19; Beta apoptosis: 9

How did CCOC(=O)N1CCN(C(=O)c2ccc(C)c(S(=O)(=O)Nc3ccccc3)c2)CC1 do in these assays?
LANA-H2B inh: -8.5; Calb FLC: -4; Beta2AR agonist: -8; Bfl-1 A1 inh: 0.0; T cruzi inh: -3; Beta apoptosis: 6

How did NC(=NCCCCCCN=C(N)/N=C(\N)Nc1ccc(Cl)cc1)/N=C(\N)Nc1ccc(Cl)cc1 do in these assays?
LANA-H2B inh: -0.6&0.0&-0.6; Calb FLC: 106*; Beta2AR agonist: 7&-3&-4; ALR inh: 2&3&0; Bfl-1 A1 inh: 4.1&0.4&-0.6; T cruzi inh: 56*!; Beta apoptosis: 120*

How did Cc1cccc(NC(=O)CNC(=O)CCNC(=O)c2ccc(C(C)(C)C)cc2)c1C do in these assays?
LANA-H2B inh: 3.2; Beta2AR agonist: 4; Ecoli rRNA inh: -7; ALR inh: 3; Bfl-1 A1 inh: -0.1; Beta apoptosis: 1; Ecoli rRNA inh OD600: -10; Ecoli rRNA inh RFP: -2.7

What do the screens show for `C=CCC1c2cccc(C(=O)OC)c2C(=O)N1c1ccccc1` (centres undefined)?
LANA-H2B inh: 4.0; Calb FLC: -3; Beta2AR agonist: 6; ALR inh: -4; Bfl-1 A1 inh: -0.5; T cruzi inh: 3; Beta apoptosis: -1

Results for COc1ccc(S(=O)(=O)NCCC(=O)NC2CCCCC2C)cc1[N+](=O)[O-] (centres undefined) ?
LANA-H2B inh: 3.1; Beta2AR agonist: -20; Ecoli rRNA inh: 6; ALR inh: -9; Bfl-1 A1 inh: -0.9; Beta apoptosis: 0; Ecoli rRNA inh OD600: 5; Ecoli rRNA inh RFP: 4.6
